Compound activity (PubChem BioAssay)
Mtb H37Rv: M. tuberculosis H37Rv growth inhibitors, H37Rv strain (AID 1626). inhibition, % at 10 µM; hits with a dose series show IC50 in µM. 220,000 compounds, 0.95% hits. M. tuberculosis H37Rv growth inhibition; higher % means a stronger effect;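 active = confirmed in a dose series; inconclusive = inhibition above 80% but not taken into the dose series; inactive = below 80% or under 30% at every dose of the series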;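 also: bacteria incubated seven days before Alamar blue readout; 0% = bacteria only wells and 100% = bacteria with antibiotic wells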
YopH inh: YopH tyrosine phosphatase inhibitors, primary screen, biochemical, fluorescence Ex485/Em525 | YopH tyrosine phosphatase [Yersinia enterocolitica] | inhibition, %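 (about 10 µM by stock and volumes)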 | 140,000 compounds, 0.16% hits | AID 898, 2007;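 active = inhibition of 50% or more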;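 also: controls were vehicle for no effect and minimum signal wells for full effect; inactives centre near -20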
Arbovirus inh: antivirals against arbovirus infection, primary screen, cell-based, full library, 10K replicate subset; arbovirus infection cell-based antiviral screen; inhibition, % at 10 µM; 200,000 compounds, 0.37% hits;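 active = inhibition from about 30%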;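 also: bluetongue infection of BSR cells; cell survival read as ATP light after 72 h; 0% = infected wells without compound and 100% = uninfected wells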
RecA intein inh: Mtb RecA intein splicing inhibitors, primary screen, biochemical, fluorescence, HTS. Protein RecA (Mycobacterium tuberculosis (strain ATCC 25618 / H37Rv)), P9WHJ3. cell-free RecA intein splicing. inhibition, %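 (about 9 µM by stock and volumes)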. 290,000 compounds, 0.75% hits. AID 2221, 2009; in the data active = inhibition above about 30%; inconclusive = no clear call, values can overlap the other calls;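 also: 0% = vehicle wells and 100% = reference inhibitor control wells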
Target sequence (P9WHJ3 whole entry, looked up): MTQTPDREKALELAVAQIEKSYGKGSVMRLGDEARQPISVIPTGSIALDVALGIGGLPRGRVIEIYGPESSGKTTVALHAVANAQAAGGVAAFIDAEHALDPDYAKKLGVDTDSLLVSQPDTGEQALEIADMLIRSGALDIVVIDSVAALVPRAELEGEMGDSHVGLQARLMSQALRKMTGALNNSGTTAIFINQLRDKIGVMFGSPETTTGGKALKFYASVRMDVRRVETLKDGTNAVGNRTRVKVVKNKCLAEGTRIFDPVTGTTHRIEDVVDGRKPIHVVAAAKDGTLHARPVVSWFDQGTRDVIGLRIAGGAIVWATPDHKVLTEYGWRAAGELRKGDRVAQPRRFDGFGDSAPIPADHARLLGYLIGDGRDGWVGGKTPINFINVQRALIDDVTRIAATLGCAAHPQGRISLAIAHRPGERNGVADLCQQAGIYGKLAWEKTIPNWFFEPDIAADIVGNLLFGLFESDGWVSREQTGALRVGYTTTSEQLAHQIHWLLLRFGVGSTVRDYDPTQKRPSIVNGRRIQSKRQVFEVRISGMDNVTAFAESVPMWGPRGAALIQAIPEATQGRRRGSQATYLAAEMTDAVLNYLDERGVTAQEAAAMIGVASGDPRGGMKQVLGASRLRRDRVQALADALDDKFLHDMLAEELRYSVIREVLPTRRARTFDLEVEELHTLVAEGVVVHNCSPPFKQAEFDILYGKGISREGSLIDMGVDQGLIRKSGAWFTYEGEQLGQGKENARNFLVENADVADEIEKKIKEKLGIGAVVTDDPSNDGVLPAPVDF
Mtb betalactam: beta-lactam sensitization of Mtb H37Rv, H37Rv; 330,000 compounds, 0.27% hits; AID 434955, 2010; M. tuberculosis H37Rv growth with meropenem, percent inhibition; hits of this screen are not shown here; inhibition, % at 25 µM;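 active = about 74% or more and at least 40 points above the plate without the antibiotic, then above 30% in a dose series; inconclusive = first-round hits that could not be retested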;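 also: growth measured after seven days incubation then overnight dye step; 0% = bacteria only wells and 100% = bacteria with antibiotic; twin plates without the antibiotic show which effects depend on it; some results filed as inactive read as strong as hits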
Arbovirus inh repeat: recorded beside Arbovirus inh, whose call it bears; inhibition, %; measured here: 10K subset replicate screen; many hits read low in the repeat;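 first of two repeat runs on a subset; 0% = infected and 100% = uninfected wells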
The depositor's hits bear a star; ? = inconclusive; / = no result given; & = joins results of further samples. The list is partial; rates above refer to the full screens.

SMILES | Mtb H37Rv | YopH inh | Arbovirus inh | RecA intein inh | Mtb betalactam | others
Cc1ccc(-n2c(SCC(=O)Nc3cc(C)on3)nc3c([nH]c4ccccc43)c2=O)cc1 | / | -41 | 5 | -1.5 | -3
Cc1nc(C(F)(F)F)c(C(=O)N/N=C(\N)c2ccccn2)s1 | ? | / | -31 | 1.8 | 74
COCCn1nnnc1SCC(=O)Nc1ccc2c(c1)OCO2 | -4% | / | -9 | 0.7 | 1
CC(C)c1ccc(Nc2nnc(SC3CCOC3=O)s2)cc1 (configuration not stated) | 2% | -22 | 2 | -6.2 | 1
Cn1c(=O)[nH]c(=O)c2c1nc(NCCN)n2CCOc1ccccc1 | / | / | / | -3.8 | -12
CCC(=O)Nc1ccc(NC(=O)CSc2nc3cc4c(cc3cc2C)CCC4)cc1 | -3% | -21 | 4 | 0.9 | 26
COc1ccc(-n2c(O)c(/C=N/NS(=O)(=O)c3cc(C)ccc3C)c3ccccc3c2=O)cc1OC | 1% | -27 | 1 | -7.8 | 12
CCOC(=O)c1cncn1[C@H](C)c1ccccc1 | -5%&3% | / | -3 | 0.3 | -3
Cc1ccccc1N1CCN(C2CCCN(C(=O)c3ocnc3C)C2)CC1 (configuration not stated) | / | / | / | 0.3 | 8
Cc1cccc(NC(=O)Cn2cnc3c(oc4nc5c(cc43)COC(C)(C)C5)c2=O)c1 | -6% | -46 | -5 | -4.2 | 3
CCOC(=O)c1cc2c(ccn2C)n1CC(=O)N(C)C | 1% | / | -1 | -2.7 | 1
O=C(NCC(c1ccco1)N1CCc2ccccc2C1)c1cccc([N+](=O)[O-])c1 (configuration not stated) | / | / | / | 2.3 | -2

The last 5 records of the section before open the next one:
SMILES | Mtb H37Rv | YopH inh | Arbovirus inh | RecA intein inh | Mtb betalactam | others
CCOC(=O)c1cncn1[C@H](C)c1ccccc1 | -5%&3% | / | -3 | 0.3 | -3
Cc1ccccc1N1CCN(C2CCCN(C(=O)c3ocnc3C)C2)CC1 (configuration not stated) | / | / | / | 0.3 | 8
Cc1cccc(NC(=O)Cn2cnc3c(oc4nc5c(cc43)COC(C)(C)C5)c2=O)c1 | -6% | -46 | -5 | -4.2 | 3
CCOC(=O)c1cc2c(ccn2C)n1CC(=O)N(C)C | 1% | / | -1 | -2.7 | 1
O=C(NCC(c1ccco1)N1CCc2ccccc2C1)c1cccc([N+](=O)[O-])c1 (configuration not stated) | / | / | / | 2.3 | -2
O=C(COC(=O)CCc1nc2ccccc2c(=O)[nH]1)Nc1ccc(Cl)cn1 | 12% | / | / | -4.3 | -1
Cc1ccc(OCC(=O)OCC(=O)c2cccc([N+](=O)[O-])c2)cc1C | / | / | / | -0.7 | 4
Cc1ccc(NC(=O)/C(=C\c2cccc(Br)c2)NC(=O)c2ccco2)cc1 | 3% | -28 | -2 | / | 21
NC(=O)NNc1cccc(Cl)n1 | -1% | / | -4 | -2.0 | -2
CCCCCCn1c(COc2ccccc2F)nnc1SCC(=O)c1c(N)n(C)c(=O)n(C)c1=O | 2% | -25 | -29 | -2.3 | 2
O=C(CCN1C(=O)C2C3C=CC(C3)C2C1=O)N1CCN(c2cccc(Cl)c2)CC1 (configuration not stated) | 8% | -45 | 0 | 4.0 | 4
OCCNCc1cc(Br)ccc1OCc1ccc(Cl)cc1Cl | 22% | -34 | -10 | -1.3 | /
COc1ccc(C(=O)NCCSC2CCCCC2)cc1 | 0% | -23 | -4 | 3.8 | 9
COC(=O)CSc1nnc(Cc2cc(=O)[nH]c(=O)[nH]2)n1-c1cccc(OC)c1 | -7% | -16 | 2 | / | 0
COc1ccc(NC(=O)COc2nsnc2N2CCOCC2)cc1 | 6% | / | 2 | -1.1 | 0
COc1cc([N+](=O)[O-])cc(/C=N/NC(=O)c2cccnc2)c1O | -4% | / | / | 4.3 | 10
CC(C(=O)N(C)C1CCCCC1)N1CCC(C(N)=O)CC1 (configuration not stated) | / | / | / | -4.1 | 3

Three entries from above, arranged by length of the SMILES, lowest first.
SMILES | Mtb H37Rv | YopH inh | Arbovirus inh | RecA intein inh | Mtb betalactam | others
COc1ccc(NC(=O)COc2nsnc2N2CCOCC2)cc1 | 6% | / | 2 | -1.1 | 0
O=C(NCC(c1ccco1)N1CCc2ccccc2C1)c1cccc([N+](=O)[O-])c1 (configuration not stated) | / | / | / | 2.3 | -2
O=C(CCN1C(=O)C2C3C=CC(C3)C2C1=O)N1CCN(c2cccc(Cl)c2)CC1 (configuration not stated) | 8% | -45 | 0 | 4.0 | 4

Remaining list, next part:
SMILES | Mtb H37Rv | YopH inh | Arbovirus inh | RecA intein inh | Mtb betalactam | others
COc1cccc(N2CCN(c3ccc4nnc(CCC(=O)Nc5cc(C)ccn5)n4n3)CC2)c1 | / | / | / | -3.5 | 3
Cc1noc(NS(=O)(=O)c2ccc(NC(=O)C(Cl)(Cl)Cl)cc2)c1C | / | / | / | -4.7 | 5
C=CCn1c(O)c(C=NCCN2CCNCC2)c(=O)[nH]c1=O | -8% | -6 | 0 | -3.8 | 11
COc1ccccc1NC(=O)Nc1ccccc1N1CCOCC1 | -2% | / | / | 1.9 | -11
O=C(CNC(=S)N(Cc1ccc(F)cc1)C1CCCCC1)NCCN1CCOCC1 | -8% | / | 10 | -2.4 | -1
COc1ccc(Br)cc1CNc1ccc(N2CCOCC2)cc1 | / | / | / | 3.1 | 3
O=C(Nc1ccc2c(c1)OCCO2)c1cccc(S(=O)(=O)N2CCOCC2)c1 | 3% | -29 | -4 | -4.0 | 2
Cc1cc2c(cc1C)CN(c1ccccc1)C2 | 9% | / | / | 6.6 | 3
CCN1CCN(CCOc2cccc(Oc3ccccc3)c2)CC1 | 5% | / | -15 | -1.3 | -1
Cc1cccc(-n2nnc3cnn(C)c3c2=O)c1 | -2% | 2 | -1 | -1.0 | -13
Cc1cc(=O)[nH]c2c(N=Nc3ccc(O)cc3)c(N)nn12 | 9% | / | -2 | -1.0 | /
NC(=O)CN1CCCC1c1ccc2c(c1)OCCO2 (configuration not stated) | / | / | / | -2.4 | -3
FC(F)(F)c1ccccc1-c1nc(-c2ccncc2)no1 | / | / | / | -1.3 | 2
O=C(c1ccc(N2CCOCC2)nc1)N1CCOCC1 | -3% | -41 | -3 | -0.8 | 4
COc1ccc(-n2c(C)cc(C(=O)COC(=O)Cc3n[nH]c(=O)c4ccccc34)c2C)cc1 | 6% | -19 | 15 | 5.2 | 7
Cc1nc(C(=O)NC2CC2)sc1C1(C)CC(c2ccccc2)=NO1 (configuration not stated) | -10% | / | / | -19 | -2
CCc1cc(-c2n[nH]c(C)c2-c2ccccc2Cl)c(O)cc1OC | / | / | / | 9.8 | 11
CNC(=O)c1cccn(Cc2ccc(C(F)(F)F)cc2)c1=O | 4% | / | -2 | -1.6 | -4
Cc1ccc(NC(=O)c2c(C(F)(F)F)nn(C)c2SCc2ccc(Cl)cc2)cc1C | -4% | -24 | 0 | 11 | -12
O=C(c1cccc(F)c1)N1CCN(Cc2cccc(Br)c2)CC1 | / | / | / | 0.6 | -1
CC(=O)N/C(=C\c1cccc([N+](=O)[O-])c1)C(=O)NC(C)C | 3% | -29 | 1 | -0.5 | 2
O=C(CSc1nn(-c2ccc(Cl)cc2)c(=S)s1)NCC1CCCO1 (configuration not stated) | 79% | / | -1 | -0.8 | 73
COc1c(O)cc2oc(-c3ccc(O)cc3)cc(=O)c2c1O | -9% | / | / | -2.4 | -8
O=C(c1ccc(Cl)s1)N1CCc2ccccc21 | 2% | -31 | 1 | 5.9 | 4
Cc1ccc(CS(=O)(=O)Cc2ccc(C(=O)NCCc3ccccc3)o2)cc1 | / | / | / | -1.7 | 7
COc1ccc2c(c1)C1(C)CC(C)(C)N2C(=O)N1c1ccccc1 (configuration not stated) | 8% | -28 | 4 | -1.6 | -5
CCOc1ccccc1OC(=O)c1ccco1 | -6% | -25 | -2 | 17 | 3
CCOc1nc(N=C(N)N)nc2c(C)cccc12 | / | -36 | -21 | -10 | 81
Cc1ccc2oc(-c3cccc(NC(=O)c4cc(-n5cnnc5)ccc4Cl)c3)nc2c1 | 0% | -8 | -7 | 2.2 | 6
CC(O)(CS(=O)(=O)Cc1ccccc1)C(=O)Nc1cccc(C(F)(F)F)c1 (configuration not stated) | -8% | -28 | 9 | 0.5 | -5
CCn1c(SCC(=O)NC2CCCCC2)nc2ccccc2c1=O | / | / | / | 1.2 | -14
O=C1CCCC2=C1C1(CCCC1)N=C(Nc1nc3ccccc3s1)N2 | -2% | -4 | 7 | -1.0 | -3
Cc1ccc(NC2CC(C)NC(=S)N2)cc1 (configuration not stated) | -11% | / | / | 1.7 | -6
CC(C)Cn1c(O)c(/C=C2\C=NN=C2c2ccccc2)sc1=S | 4% | -18 | -42 | -3.6 | 24
COc1ccc(C2=NS(=O)(=O)N(C)C(C(=O)Nc3ccc4c(c3)OCO4)=C2)cc1OC | / | / | / | -0.9 | -5
CCOC(=O)Cn1c(=O)c2c(nc3n2CCN3Cc2ccccc2)n(C)c1=O | -11% | -48 | 0 | -1.5 | -5
COc1ccc(OC)c(N(CC(=O)O)S(=O)(=O)c2ccc(OC)c(OC)c2)c1 | -16% | -20 | -2 | 0.9 | -7 | Arbovirus inh repeat=-1
CCOC(=O)c1sc(NC(=S)NC(=O)c2ccccc2Cl)c(C(=O)OCC)c1C | -7% | -37 | 3 | -1.4 | 1
Cc1ccccc1-c1nnc(SCC(=O)Nc2ccc3c(c2)OCCO3)n1N | -8% | -36 | -1 | / | -3 | Arbovirus inh repeat=0
Cc1cc(NC(=O)CSc2nnc(CNc3ccc(F)cc3)n2C2CCCCC2)no1 | -1% | -41 | 15 | -2.2 | 6
Cc1cc(C(=O)O)ccc1-c1ccc(/C=N/n2cnnc2)o1 | / | / | / | 0.0 | 2
CSc1ccccc1OCc1cc(C(=O)N2CCCC2c2nonc2C)no1 (configuration not stated) | / | / | / | -4.7 | 5
CCOc1ccc(OCC)c(NC(=O)CSc2nc3cccnc3n2C)c1 | 4% | -11 | 0 | 1.0 | 2
CC(=O)N1CCN(C(=O)COC(=O)CNC(=O)c2ccccc2C)CC1 | / | / | / | -5.8 | -13
COC(=O)[C@@]12CCCCN1[C@H](c1ccc(SC3CCCCC3)c(OC)c1)[C@@H]1C(=O)N(C)C(=O)[C@@H]12 | / | / | / | 10 | -3
Cc1noc(NS(=O)(=O)c2ccc(NC(=O)c3ccoc3C)cc2)c1C | -9% | -31 | -1 | 0.6 | -4
O=C(c1cc2ccccc2oc1=O)N1CCC2(CC1)OCCO2 | 3% | 15 | 6 | 1.2 | 7
CCN(CC)CCn1c2ccccc2c2nc3ccc([N+](=O)[O-])cc3cc21 | 13% | / | / | -0.9 | 2
O=C1OCCC1N1C(=O)c2ccccc2S1(=O)=O (configuration not stated) | -3% | -39 | 9 | 2.1 | 3
CCOc1cccc(C(=O)Nc2cccc(C(=O)NCC(C)C)c2)c1 | 5% | -31 | -9 | 7.1 | 6
Cc1ccc(OCC(=O)N2CCN(C(=O)c3cccc(F)c3)CC2)cc1 | 14% | / | -1 | -2.3 | 2
COc1ccc(OC)c(N(CC(=O)Nc2cccnc2)S(=O)(=O)c2ccccc2)c1 | -7% | -16 | -4 | -0.1 | -1
O=C(NC(=O)c1cccc(F)c1)OC[C@@H]1CCCN2CCCC[C@H]12 | -1% | -17 | 6 | -0.7 | -2 | Arbovirus inh repeat=3
Cc1nnc(SCc2c(Cl)cccc2Cl)s1 | 0% | -7 | -6 | 1.5 | -2
COc1ccc(N2C(=O)CSC2c2cccc(F)c2)c(OC)c1 (configuration not stated) | -6% | -31 | -5 | 5.1 | -3
CCCc1nnc(SCC(=O)N2CCOCC2)n1C | -5% | -25 | 4 | 0.3 | -1
COc1cc2cc(Oc3ccc4ccc(=O)oc4c3)c(=O)oc2cc1OC1OC(COC(=O)CC(C)(O)CC(=O)O)C(O)C(O)C1O (configuration not stated) | -6% | -29 | 5 | 2.6 | -5
O=C(OCn1ncc(Br)c(Br)c1=O)c1ccccc1Cl | 54% | -4 | -45 | 64* | 100
O=C(COC(=O)c1cn(-c2ccccc2)nc1-c1cccs1)NC1CC1 | 4% | -19 | -7 | -2.8 | -12
CCN(C(=O)COc1ncnc2sccc12)c1ccccc1 | -3% | / | 6 | 2.0 | -6
O=C(NCCN1C(=O)C2C3C=CC(C3)C2C1=O)Nc1ccc(Br)cc1 (configuration not stated) | -6% | / | -7 | 2.1 | 0 | Arbovirus inh repeat=-1
CCn1c(SCC(N)=O)nc2c1c(=O)n(C)c(=O)n2C | 0% | 29 | 9 | 1.1 | -11
